KCNQ2 pot: potentiators of rat KCNQ2 potassium channel | B-score at 10 µM | 310,000 tested, 0.54% active | CHO-K1 KCNQ2, FluxOR thallium flux fluorescence; active compounds read high | O88943;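 active = fluorescence ratio B-score at least 3 SD of library B-scores, with initial fluorescence B-score within 3 SD, cut at about 5.3 in these data; same plate scores as AID 2156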;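 also: B-score of peak minus minimum over baseline fluorescence ratio after K+ and Tl+ stimulus; positive B-score means potentiation of KCNQ2 with more thallium influx and brighter signal; only the inactives scoring about 0 or higher are listed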
Target sequence (O88943 whole entry, looked up): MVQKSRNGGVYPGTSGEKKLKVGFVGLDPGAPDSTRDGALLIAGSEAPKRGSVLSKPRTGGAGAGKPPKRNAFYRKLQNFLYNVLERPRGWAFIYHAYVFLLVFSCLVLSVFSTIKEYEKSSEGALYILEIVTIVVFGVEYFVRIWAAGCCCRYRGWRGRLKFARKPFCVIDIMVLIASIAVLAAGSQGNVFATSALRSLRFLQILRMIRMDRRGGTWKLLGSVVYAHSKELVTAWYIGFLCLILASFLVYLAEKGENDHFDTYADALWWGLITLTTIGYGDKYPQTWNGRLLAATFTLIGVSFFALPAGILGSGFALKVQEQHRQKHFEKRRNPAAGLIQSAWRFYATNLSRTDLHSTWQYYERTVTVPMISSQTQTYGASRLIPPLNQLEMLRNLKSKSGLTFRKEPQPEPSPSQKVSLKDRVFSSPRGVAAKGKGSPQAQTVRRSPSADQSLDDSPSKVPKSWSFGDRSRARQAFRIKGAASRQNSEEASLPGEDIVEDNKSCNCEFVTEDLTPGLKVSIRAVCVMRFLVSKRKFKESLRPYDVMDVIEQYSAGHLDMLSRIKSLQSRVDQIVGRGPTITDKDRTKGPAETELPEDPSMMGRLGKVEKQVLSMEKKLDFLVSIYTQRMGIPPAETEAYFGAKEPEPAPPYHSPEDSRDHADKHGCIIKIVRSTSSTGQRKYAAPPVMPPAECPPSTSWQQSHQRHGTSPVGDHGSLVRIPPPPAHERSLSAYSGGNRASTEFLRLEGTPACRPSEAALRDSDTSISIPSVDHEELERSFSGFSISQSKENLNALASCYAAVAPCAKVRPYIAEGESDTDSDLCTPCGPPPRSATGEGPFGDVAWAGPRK
KCNQ2 pot baseline: also measured in KCNQ2 pot; calls as there; B-score; compound at 10 µM; measured here: initial fluorescence intensity artifact check;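 brightness before thallium and not channel activity; 0 = typical well and far values either way flag optical interference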
An asterisk follows results filed as active. The list is partial, so the mix of outcomes need not match the whole.

SMILES | KCNQ2 pot | KCNQ2 pot baseline
C#CCOCCOCCOCCNc1nc(N2CCN(C(=O)[C@H]([C@@H](C)CC)n3cc([C@@H](N)Cc4ccc(O)cc4)nn3)CC2)nc(N2CCN(C(=O)[C@H](Cc3ccc(O)cc3)n3cc([C@@H](N)C(C)CC)nn3)CC2)n1 (some centres undefined) | 0.08 | -1.6
CCCCn1c(N)c(N(CCOC)C(=O)CSCC(=O)Nc2cccc(C)c2)c(=O)[nH]c1=O | 0.67 | -0.04
Cc1cc(C(=O)COc2cccnc2[N+](=O)[O-])c(C)n1-c1ccccc1F | 1.1 | 0.01
O=C(Cn1cnc2c(nnn2Cc2ccccc2)c1=O)c1ccc(Cl)cc1 | 0.6 | 0.62
CCOC(=O)N1CCN(C(=O)C2CCN(CC3CCCCC3)CC2)CC1 | 0.38 | 0.24
O=C(O)CC1(Cc2nc(-c3cccs3)no2)CCCC1 | 2.6 | -1.4
C=CCOc1c2ccc(C(=O)N(CC)c3ccc(OC)cc3)cc2nn1C | 0.95 | -1.4
COc1ccc(N2C(=O)c3ccccc3NC2c2ccc(OC)c(CN3CCOCC3)c2)cc1 (centres undefined) | 1.1 | -0.49
CCOC(=O)CCC(=O)Nc1ccc(S(=O)(=O)N2CCC(C)CC2)cc1 | 0.65 | -0.74
O=C(NCCCN1CCCCCC1)C1CC(=O)N(C2CCCC2)C1 (centres undefined) | 0.85 | 0.1
COc1ccc(Nc2cc(C(=O)NCCCN3CCN(C)CC3)c3ccccc3n2)c(OC)c1 | 0.1 | -1.4
COC(=O)Cn1c(=NC(=O)CN2C(=O)CCC2=O)sc2cc(S(N)(=O)=O)ccc21 | 0.03 | -0.62
CCOC(=O)c1ccc(NC(=S)NCC(O)c2ccccc2)cc1 (centres undefined) | 1.9 | -3.6
Cn1nc(C(C)(C)C)cc1C(=O)NNC(=O)c1ccccc1Cl | 2.1 | 0.07
Cc1cc(NS(=O)(=O)c2ccc(NC(=S)NCc3ccccc3)cc2)no1 | 0.43 | 1.1
CS(=O)(=O)N(CCc1ccccc1)CC(=O)Nc1ccc2c(c1)OCO2 | 0.2 | 0.38
O=Cc1sc(=O)n(Cc2cccc(C(=O)O)c2)c1Cl | 0.03 | 0.29
O=c1c2nnn(Cc3ccc(Cl)cc3)c2ncn1Cc1ccc(F)cc1 | 1.5 | -0.03
COc1ccc(-c2c(C(C)=O)c(C)nc3sc4c(=O)n(-c5ccc(C)cc5)nnc4c23)cc1 | 0.14 | -0.24
COC(=O)COc1ccc(NS(=O)(=O)c2cccc([N+](=O)[O-])c2)cc1 | 0.12 | -1.4
Cn1c(=O)oc2cc(S(=O)(=O)N3CCN(c4ccccc4)CC3)ccc21 | 0.03 | 0.55
O=C(NCc1ccco1)c1ccc(Cn2cc([N+](=O)[O-])cn2)o1 | 0.78 | 0.43
CC1(C)Cc2cccc(OCC(=O)OCC(=O)Nc3ccc(C(N)=O)cc3)c2O1 | 0.77 | -0.04
O=C(COC(=O)/C=C/c1cccc(C(F)(F)F)c1)Nc1cccc2ccccc12 | 0.41 | -2
Cn1c(SCC(=O)NCc2ccccc2)nnc1C1CC1 | 1.7 | -1.2
CN(CC(=O)Nc1ccc(F)c(F)c1F)C(=O)CC1OC(=O)c2ccccc21 (centres undefined) | 0.49 | -0.76
CCCCSc1nnc2c(n1)[nH]c1ccccc12 | 1.8 | 0.06
CC1(CC(=O)N/N=C/c2ccc(-c3ccc(Cl)cc3)o2)OCCO1 | 2 | 0.12
Cc1ccccc1-c1cnn(-c2cccc([N+](=O)[O-])c2)c1N | 0.71 | -0.79
COC(=O)CNC(=O)Cn1cnc2sc(C)c(S(=O)(=O)N3CCN(c4ccccc4OC)CC3)c2c1=O | 0.01 | -1.4
Cc1ccccc1C(OCCN(C)C)c1ccccc1 (centres undefined) | 0.24 | 1.4
O=C(CNC(=O)c1ccccc1)OCCCOC(=O)CNC(=O)c1ccccc1 | 0.96 | 0.19
COc1ccc2oc(=O)c(-c3nnc(N)s3)cc2c1 | 1.2 | 0.78
C/C(=N\NC(=O)c1cccs1)c1ccc2ccccc2c1 | 0.43 | 0
O=C(CCc1ccc(S(=O)(=O)NCc2ccccc2)cc1)NCc1cccnc1 | 0.22 | 1.9
COc1cc(/C=N/NC(=O)CNS(=O)(=O)c2ccc(C)cc2)cc(OC)c1OC | 0.72 | 1.6
CC(=O)Nc1cccc(NC(=O)c2c(-c3ccccc3)noc2C)c1 | 1.3 | -1.4
CC(C)Cc1ccc(C(C)C(=O)Nc2ncccn2)cc1 (centres undefined) | 1.6 | 0.75
COc1cc(Br)cc2cc(C(=O)N3CCOCC3)c(=O)oc12 | 0.31 | -0.13
Cc1ccc(/C=C/C(=O)Nn2cnnc2)cc1 | 0.72 | -0.64
CNC(=S)NNC(=O)c1ccccc1F | 0.14 | 0.31
CN(C)S(=O)(=O)c1cccc(NC(=O)CCCSc2ccccc2)c1 | 2.7 | 0.22
O=C(Oc1ccccc1)c1c(Cl)cccc1P(=O)(O)O | 0.92 | 0
CC(NC(=O)c1cc2c(=O)n(C)c3ccccc3c2n1C)c1ccc2c(c1)OCCO2 (centres undefined) | 0.12 | -0.82
Fc1ccc(Oc2cc(N3CCOCC3)nc(-c3ccccc3)n2)c(F)c1 | 1.4 | 0.48
COc1cccc(N(CC(=O)NC2CCCCCC2)S(=O)(=O)c2ccccc2)c1 | 2.2 | -0.57
COCCOC(=O)C1=C(C)OC(N)=C(C#N)C1c1ccco1 (centres undefined) | 0.1 | 2.1
CN1CCN(c2ccccc2NC(=O)Cn2ncc3c([nH]c4ccccc43)c2=O)CC1 | 0.76 | -0.54
COc1cc(/C=C/C(=O)Nc2ccncc2)cc(OC)c1OC | 0.28 | 0.43
CCCCNC(=O)c1cc2cccc([N+](=O)[O-])c2[nH]1 | 1.2 | 0.71
Cc1cc(C)n(C(=O)CSc2ccc(Cl)cc2)n1 | 0.92 | -1.4
Cc1noc(C)c1CSc1nc2ccccc2n1C | 2.7 | 0.5
O=C(Oc1nsnc1N1CCCCC1)N1CCOCC1 | 0.66 | 0.02
Cc1cccc(NC(=O)CCN2CCC(C)CC2)c1 | 1.2 | -0.14
CCOC(=O)c1cnc2c(N=Nc3ccccc3)c(N)nn2c1N | 0.5 | -0.76
Cc1[nH]c2ccccc2c1/C=N/NC(=O)CNC(=O)c1ccco1 | 0.8 | -0.26
CCCOC(=O)/C=C/c1c(C)[nH]c(=O)[nH]c1=O | 0.12 | 0.07
CSc1cccc(NC(=O)Cn2cccc2)c1 | 0.05 | -0.12
CC(C)CC(=O)NC(=S)Nc1ccc(CN2CCOCC2)cc1 | 0.22 | -0.11
COc1cc(CO)ccc1OCC(=O)Nc1cccc2ccccc12 | 0.35 | -0.26

Single records, as listed above. Order of screens: KCNQ2 pot | KCNQ2 pot baseline
O=C(Oc1nsnc1N1CCCCC1)N1CCOCC1 as listed: 0.66 | 0.02
Cc1[nH]c2ccccc2c1/C=N/NC(=O)CNC(=O)c1ccco1 as listed: 0.8 | -0.26
CC(C)CC(=O)NC(=S)Nc1ccc(CN2CCOCC2)cc1 as listed: 0.22 | -0.11
CCCCNC(=O)c1cc2cccc([N+](=O)[O-])c2[nH]1 as listed: 1.2 | 0.71
CSc1cccc(NC(=O)Cn2cccc2)c1 as listed: 0.05 | -0.12

Next part:
SMILES | KCNQ2 pot | KCNQ2 pot baseline
O=C(CO)N/N=C/c1ccccc1F | 0.11 | -0.11
CCN(CC)c1ccc(/C=N/NC(=O)c2ccoc2C)cc1 | 0.04 | -0.27
CN(C(=O)COC(=O)c1cc(S(=O)(=O)N(C)C)ccc1Cl)C1CCS(=O)(=O)C1 (centres undefined) | 0.01 | -0.6
Cc1c(NC(=O)c2n[nH]c(=O)c3ccccc23)c(=O)n(-c2ccccc2)n1C | 1.6 | -0.61
Cc1nn(CC(=O)N2CCN(c3cccc(C(F)(F)F)c3)CC2)c(=O)c2cccn12 | 0.27 | -0.01
Cc1ccc(-c2nnc(SCC(=O)CC(=O)Nc3ccccc3)n2C)cc1 | 1.2 | -0.13
O=C(NNC(=S)Nc1ccc(F)c(Cl)c1)c1ccccc1Br | 0.05 | -1
CCN(CC)C(=O)CSc1nc2c(sc(=S)n2-c2ccccc2)c(=O)[nH]1 | 0.08 | -0.02
Cc1cc(C(F)F)n2nc(C(=O)Nc3ccc(S(=O)(=O)N4CCCC4)cc3)nc2n1 | 0.78 | -0.98
COc1ccc(-c2noc3c2-c2nc(-c4ccc(Br)cc4)sc2CC3)cc1 | 0.04 | 1.8
CC(=O)c1c(N2CCC(C(N)=O)CC2)nc(=S)n(-c2ccccc2)c1C | 0.38 | -0.87
COc1cc(C)c(CN2CCC(Oc3ccc(C(=O)N4CCCC4)cc3)CC2)cc1C | 0.01 | 0.27
Cc1cccc(C)c1NC(=O)C(NC=O)c1ccc(N(C)C)cc1 (centres undefined) | 1 | -1.9
O=C(Nc1ccc(C(=O)N2CCOCC2)cc1)c1cccc([N+](=O)[O-])c1 | 0.35 | -1.3
O=C(CSc1ccc(-c2ccco2)nn1)Nc1cccc(F)c1 | 0.48 | -0.89
O=c1cc(-c2ccc(O)c(O)c2)oc2c(C3O[C@H](CO)[C@@H](O)[C@H](O)[C@H]3O)c(O)cc(O)c12 (some centres undefined) | 0.84 | -0.87
O=C(NCCc1cn2ccsc2n1)C1CCCCC1 | 0.14 | 0.81
Cc1ccc(S(=O)(=O)Nc2c(O)ccc3ccccc23)cc1 | 2.4 | -3.7
O=C(CSC1=NNC(c2ccccn2)S1)Nc1ccc(C(F)(F)F)cc1 (centres undefined) | 0.25 | -0.39
CCS(=O)(=O)Nc1cc2c3c(c1)CCN3C(=O)CC2 | 1.5 | -0.81
COc1cccc(NC(=O)Nc2ccc3c(c2)OCO3)c1 | 0.82 | 0.03
O=C1Cc2cc(S(=O)(=O)N3CCN(c4cccc(Cl)c4)CC3)ccc2N1 | 0.81 | -2.4
CC(=O)c1cccc(NC(=S)NCc2ccccc2)c1 | 0.78 | -0.64
Cc1ccc(-n2nc3c(Cl)nnc(C)c3c2C)cc1 | 0.97 | -1.2
OC(COCC1CC=CCC1)Cn1cnc2ccccc21 (centres undefined) | 0.48 | 0.24
CC(C)(C)Nc1nc2ccc([N+](=O)[O-])cc2o1 | 0.68 | 1.1
O=C(CSc1ncccn1)Nc1ccccc1 | 0.09 | 2.6
CC1CN(C/C(=N\O)C23CC4CC(CC(C4)C2)C3)CC(C)O1 (centres undefined) | 0.32 | -1.8
CC#CCN1c2ccccc2[C@]23C[C@@H](C(=O)OC)N(C(=O)OCC)C2=NC(C(=O)OC)=C(C(=O)OC)[C@H]13 | 0.31 | 0.17
C=CCN1C(=O)C(=O)N(Cc2nc3ccccc3s2)C1=O | 0.02 | 1.6
CCN(CC)S(=O)(=O)c1cccc(C(=O)N/N=C/c2ccccc2OCC(=O)O)c1 | 1.4 | 0.53
O=C(Cc1cccs1)N1CCN(C(=O)C2CCCO2)CC1 (centres undefined) | 0.16 | -0.09
CC(C)CC(=O)Nc1nnc(S(=O)(=O)N(C)Cc2ccco2)s1 | 0.02 | 0.73
COc1ccc(CCNC(=O)c2cc([N+](=O)[O-])cc([N+](=O)[O-])c2)cc1OC | 1.7 | 0.66
O=C(CCSc1ccccc1)Nc1ccc(OCc2ccccc2)cc1 | 0.76 | 2.7
Cc1cc(C)n(CC(=O)N/N=C/c2cc(Br)cc([N+](=O)[O-])c2O)n1 | 6.9* | -1.1*
Cc1c(C(=O)Nc2cccc([N+](=O)[O-])c2)cnn1-c1ccccc1 | 0.1 | 0.2
CN(CCO)S(=O)(=O)c1ccc2c(c1)C(=NNC(N)=O)c1cc(S(=O)(=O)N(C)CCO)ccc1-2 | 0.43 | 0.26
S=C(Nc1ccccc1)N1CCCCCC1 | 0.33 | -1.8
COc1ccc(N2CC(C(=O)Nc3cccnc3)CC2=O)cc1 (centres undefined) | 0.1 | 0
CSCCC(NC(=O)c1ccc(Cl)cc1)C(=O)OCC(=O)NCc1ccco1 (centres undefined) | 0.12 | -0.78
O=C(/C=C/c1ccc(F)cc1)NCCC1=CCCCC1 | 0.03 | 0.18
COc1cc2c(cc1NC(=O)COc1ccc3ccccc3c1)oc1ccccc12 | 0.54 | 0.85
COc1ccc(NC(=O)c2cc(C3CC3)on2)c(OC)c1 | 1.2 | 1.1
c1coc(CNc2nc3sc4c(c3c3ncnn23)CCCC4)c1 | 0.91 | -0.8
COC(=O)c1ccc(C)c(NC(=O)c2c(-c3ccccc3)noc2C)c1 | 0.02 | -0.58
O=C(O)CCS(=O)(=O)c1ccc(-c2ccccc2)cc1 | 0.9 | -0.97
COc1ccc(N2CCN(C(=O)c3ccc(Cl)c(S(=O)(=O)N4CCCC4)c3)CC2)cc1 | 0.38 | -0.7
CC(=O)c1cccc(S(=O)(=O)NCC(C)(C)N2CCOCC2)c1 | 0.38 | 0.77
CC(C)(CCl)C(=O)Nc1ccc(OC(F)(F)F)cc1 | 4.1 | 1.4
CCCn1c(=N)n(CC(=O)c2ccc(OCC(=O)OC)cc2)c2ccccc21 | 1.2 | -0.02
CCCc1cc2c(cc1NC(=O)c1ccc(Br)cc1)OCO2 | 0.77 | -0.72

Pulled one by one from the list above, six records:
SMILES | KCNQ2 pot | KCNQ2 pot baseline
COc1ccc(NC(=O)c2cc(C3CC3)on2)c(OC)c1 | 1.2 | 1.1
O=C(O)CCS(=O)(=O)c1ccc(-c2ccccc2)cc1 | 0.9 | -0.97
COC(=O)c1ccc(C)c(NC(=O)c2c(-c3ccccc3)noc2C)c1 | 0.02 | -0.58
COc1ccc(N2CCN(C(=O)c3ccc(Cl)c(S(=O)(=O)N4CCCC4)c3)CC2)cc1 | 0.38 | -0.7
c1coc(CNc2nc3sc4c(c3c3ncnn23)CCCC4)c1 | 0.91 | -0.8
CSCCC(NC(=O)c1ccc(Cl)cc1)C(=O)OCC(=O)NCc1ccco1 (centres undefined) | 0.12 | -0.78

Screens from PubChem BioAssay.
